Assay outcomes from PubChem.
CtBP-E1A inh – blocks the CtBP interaction with E1A | AID 651724 | AlphaScreen GST-E1A/His-CtBP binding, 1536-well; hits give low values; control for the full effect not named in the record | 340,000 tested, 0.49% active | activity change, % (test concentration not listed); in the data active means activity change below about -65%; inconclusive means about -30% to -65%; inactive means above about -30%; also: % is scaled to controls: 0 for no effect and ±100 for the full control effect; compound concentration not given in the record
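AlphaScreen with 125 nM GST-E1A and 125 nM His-CtBP (5X stocks) in Tris pH 8.0, 300 mM NaCl, BSA, Tween 20, TCEP. Compounds preincubated 2 h at 37 deg C, then glutathione donor/nickel acceptor beads added for 1 h at 37 deg C in dark.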
D2 ag – human D2 receptor agonism in beta-arrestin assay; P14416; DiscoveRx PathHunter D2 beta-arrestin, luminescence, 90 min; 100% = 57 uM dopamine signal; activation, % (test concentration not listed); 360,000 tested, 0.084% active; AID 624465; in the data active = activation above about 40%; inconclusive = about 15% to 40%; inactive = below about 15%; also: compound concentration not given in the record; the text of the record calls up to 30% inactive
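Agonist mode: compounds alone added to overnight-plated D2 PathHunter cells for 90 min at 37 C, with 57 uM final dopamine (EC100) defining full response. Beta-arrestin recruitment detected by chemiluminescent reagent, read after 1 h at ambient temperature.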
TRPV1 PAM – potentiators of human vanilloid receptor 1 (TRPV1); Q8NER1; TRPV1-expressing cells, Fluo-8 calcium influx, capsaicin EC20 potentiation; host cell line not named in the record; control for the full effect not named in the record; potentiation, % at 8.33 µM; 320,000 tested, 0.02% active; AID 540277; active means potentiation above 80%; inconclusive means 30% to 80%; inactive means below 30%; also: 0% is about no effect
Target sequence (Q8NER1 whole entry, looked up): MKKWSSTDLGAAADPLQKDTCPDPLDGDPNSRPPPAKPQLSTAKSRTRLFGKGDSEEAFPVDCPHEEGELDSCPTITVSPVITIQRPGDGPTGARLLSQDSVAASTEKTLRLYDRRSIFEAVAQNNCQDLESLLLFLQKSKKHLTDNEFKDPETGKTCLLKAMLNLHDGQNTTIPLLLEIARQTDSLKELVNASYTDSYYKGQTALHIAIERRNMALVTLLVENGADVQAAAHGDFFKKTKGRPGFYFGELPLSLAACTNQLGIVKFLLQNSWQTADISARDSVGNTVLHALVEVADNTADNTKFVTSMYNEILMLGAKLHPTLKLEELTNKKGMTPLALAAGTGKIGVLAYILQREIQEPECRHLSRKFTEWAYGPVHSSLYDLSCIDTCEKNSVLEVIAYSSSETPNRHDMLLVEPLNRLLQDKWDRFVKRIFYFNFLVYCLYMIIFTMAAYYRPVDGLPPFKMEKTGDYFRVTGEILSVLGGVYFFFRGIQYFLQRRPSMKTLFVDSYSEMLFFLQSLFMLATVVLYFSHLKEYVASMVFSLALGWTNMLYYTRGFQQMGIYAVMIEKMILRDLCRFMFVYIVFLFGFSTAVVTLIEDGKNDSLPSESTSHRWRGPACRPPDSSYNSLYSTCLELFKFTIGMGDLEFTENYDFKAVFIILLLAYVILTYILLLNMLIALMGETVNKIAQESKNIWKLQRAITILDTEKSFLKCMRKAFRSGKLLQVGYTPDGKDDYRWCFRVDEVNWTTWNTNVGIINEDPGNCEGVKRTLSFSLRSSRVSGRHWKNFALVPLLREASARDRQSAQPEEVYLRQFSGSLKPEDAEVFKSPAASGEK
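Cells expressing TRPV1 were dye-loaded with Fluo-8 and read kinetically: 10 s baseline, 3 min after compound (agonist portion), then 2 min after EC20 capsaicin (allosteric enhancer portion). Calcium-bound dye fluorescence at 480/520 nm.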
Six1-Eya2 inh – Six1/Eya2 interaction inhibition | AlphaScreen GST-Six1/His-Eya2 binding, biochemical; hits give low values; control for the full effect not named in the record | activity change, % (test concentration not listed) | 360,000 tested, 0.56% active | Q15475+O00167; in the data active = activity change below about -65%; inconclusive = about -30% to -65%; inactive = above about -30%; also: % is scaled to controls: 0 for no effect and ±100 for the full control effect; compound concentration not given in the record
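AlphaScreen with GST-Six1 and His-Eya2 (5X mix: 250 nM and 500 nM), glutathione donor and nickel acceptor beads; buffer 50 mM Tris pH 8.0, 300 mM NaCl, 1 mM TCEP; 1 h at 37 C in the dark.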
D2 PAM – positive allosteric modulators of human D2 dopamine receptor | P14416 | DiscoveRx D2 beta-arrestin cells, luminescence, 90 min; 100% = 57 uM dopamine signal | potentiation, % (test concentration not listed) | 360,000 tested, 0.23% active | AID 624464; active = potentiation of 50% or more; inconclusive = 30% to 50%; inactive = 30% or less;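 also: compound concentration not given in the record; tested on top of an EC20 dose of dopamine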
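PathHunter beta-arrestin assay in DiscoveRx D2 cells. Compounds were added with an EC20 of dopamine (50 nM final) for 90 min at 37 deg C. Luminescence was read 1 h after detection reagent, with 57 uM dopamine as the EC100 control.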
PINK1 modulator – modulators of PINK1 expression | PINK1 immunofluorescence, high-content cytometry, 24 h | Potency, µM (highest dose often 76.6 µM), for the others: at the highest dose activation (PINK1 increase), usual class: activators | 410,000 tested, 0.2% active | AID 624263; active = well fitted activation curve with a large enough effect; inconclusive = small, poorly fitted or top-dose-only effect; inactive = flat fitted curve, though single readings scatter; cell line not stated here;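 also: potency is read from the fitted curve at half-maximal effect; % of control where 0% means no effect; nearly all actives have a fitted effect of over 65% in size; a mitochondrial uncoupler was the plate control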
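PINK1 protein, normally rapidly degraded, was detected by immunofluorescence after 24 hour compound treatment of a stable cell line. Titration data (5 concentrations) came from laser-scanning cytometry, with CCCP-treated wells as controls.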
Sfp PPTase inh – Sfp phosphopantetheinyl transferase inhibition; Biochemical Sfp PPTase activity, qHTS; Potency, µM, for inactives: max response, negative = inhibition, hits mostly inhibitors; 310,000 tested, 3.5% active; AID 1490; active = well fitted inhibition curve with a large enough effect; inconclusive = small, poorly fitted or top-dose-only effect, or another doubt; inactive = no such curve, though single readings can be large or run the other way;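 also: the enzyme is Sfp with the accession as filed and its product quenches rhodamine fluorescence; potency is read from the fitted curve at half-maximal effect; 0% = enzyme reaction without inhibitor and -100% = no enzyme wells; top concentration of the series not given in the record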
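Compounds were incubated with enzyme (final 15 nM) for 15 min at room temperature before substrate addition started the reaction. Fluorescence at 525 nm excitation, 598 nm emission was recorded immediately and after 30 minutes.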
* hit, by the source's call; ? = inconclusive; · = no result given; & = joins results of further samples; [ ] = remark or other dose. This is a random part of the collection; 3.7% or so of the library scored in one or more.

SMILES	CtBP-E1A inh	D2 ag	TRPV1 PAM	Six1-Eya2 inh	D2 PAM	PINK1 modulator	Sfp PPTase inh
C=CCNC(=O)c1cc(C(=O)C(C)c2ncc(C(F)(F)F)cc2Cl)c[nH]1 (stereo not given)	5	-0.7	?	5	0	5.8%	7%
CCc1ccc(OCC(=O)NC(=S)Nc2ccc(Br)c(C)n2)cc1	·	-1.8	6	2	-8	-1.6%	9%
CCN(CC(=O)Nc1ccc2c(c1)OCCO2)C(=O)c1ccccc1Br	·	1.1	·	-10	3	-0.1%	·
Cc1cccc(NC(=O)COC(=O)c2nn(C)c(=O)c3ccccc23)c1C	11	-4.2	·	3	-8	-0.3%	·
COC(=O)c1cccc(NC(=O)CSc2nnc(C3CC3)n2C)c1	24	1.1	20	6	0	-0.1%	2%
COc1ccc(C(=O)NCCSCc2ccco2)cc1OC	2	-3.5	-8	-3	-7	11%[38.3 µM]	15%
COCCNC(=O)c1c(N)n(CCC2=CCCCC2)c2nc3ccccc3nc12	27	-3.5	4	3	-3	-1.0%	-12%
CC(=O)c1ccc(OCCCC(=O)N2CCN(S(=O)(=O)c3cccs3)CC2)cc1	1	0.4	-3	6	-2	-1.4%	12%
CCOC(=O)c1oc2cc(C)cc(C)c2c1C	18	-4.8	15	9	-9	9.4%	4%
O=C(CCS(=O)(=O)c1ccccc1)Nc1ccc(S(=O)(=O)Nc2nccs2)cc1	-2	-1.9	·	2	-17	-0.3%	·
CC(=O)c1cc(F)c(N2CCN(c3ccc([N+](=O)[O-])cc3F)CC2)cc1C	4	-0.3	-1	-3	-3	?	15%
C(=N\Nc1nc2ccccc2s1)/c1ccco1	9	2.3	8	-12	1	·	3%
O=C(NC(C(=O)c1ccccc1)n1c(=O)cc[nH]c1=S)c1ccccc1 (stereo not given)	10	3.4	3	2	6	·	?
Cc1ccccc1-n1ncc2c(SCC(=O)NC3CCCC3)ncnc21	-10	1.0	8	11	-8	-0.1%	19%
O=C(Nc1cnn(Cc2ccc(Cl)cc2)c1)c1cccs1	5	-4.7	-5	0	-19	1.7%	-5%
O=C1CC(C(=O)N2CCN(c3ccc(F)cc3)CC2)CN1CCc1ccccc1 (stereo not given)	3	-4.0	·	-2	6	2.0%	25%
Cc1cccc(NC(=S)NCc2cccs2)c1C	4	2.9	-4	-1	-16	-0.9%	21%
O=C(N/N=C/c1ccc(OC(=O)c2cccc(F)c2)cc1)c1cccnc1	0	-3.1	3	-26	-2	1.1%	-2%
CCCCc1ncc(CN2CCC(CC3CCCCO3)(C(=O)OCC)CC2)[nH]1 (stereo not given)	9	-2.2	5	5	-12	-0.2%	14%
C[C@H](CO)N1C[C@H](C)[C@@H](CN(C)Cc2ccccc2)Oc2c(NC(=O)Cc3ccccc3)cccc2C1=O	1	9.6	·	-8	4	-0.9%	·
Cc1cccc(NC(=O)CNC(=O)c2ccc(S(=O)(=O)NCc3ccco3)cc2)c1C	-2	-2.5	·	1	-11	-0.5%	·
C[C@H]1CN([C@@H](C)CO)C(=O)CCCn2nncc2CO[C@H]1CN(C)C(=O)NC1CCCCC1	7	-3.9	·	-4	2	0.4%	·
c1ccc2c(c1)ccn1c(Cc3ccsc3)c(C3CCCCC3)nc21	3	·	·	1	·	?	·
CN(C)C(=O)c1nc(C#N)c(N(C)C)o1	-3	-2.5	6	0	12	·	0%
Cc1c(CC(=O)O)c(=O)oc2cc3occ(-c4ccc(F)cc4)c3cc12	-8	-1.8	4	?	-1	-2.4%	40µM*
O=C(CCC1CCN(Cc2ccc(Cl)cc2)CC1)NC1CC1	-5	-4.9	-11	-17	-15	-0.7%	15%
CS(=O)(=O)N(CC(=O)N1CCOCC1)Cc1ccccc1	-4	-4.0	1	-1	-15	·	13%
CN(C(=O)CC1C(=O)NCCN1Cc1cccc(C(F)(F)F)c1)C1CCOCC1 (stereo not given)	6	3.7	7	4	-7	2.4%	3%
CCc1ccc2[nH]c(C(=O)N(C)c3ccc(F)cc3F)cc2c1	3	-0.3	-2	8	2	5.5%	?
CCC(C)NC(=O)c1cn(CC)c2cc(N3CCN(C)CC3)c(F)cc2c1=O (stereo not given)	0	-0.7	-8	-4	-3	0.7%	14%
COc1ccccc1N1CCN(c2cc(=O)n(-c3ccc(Br)cc3)c(=O)[nH]2)CC1	10	-0.1	13	6	-9	-3.0%[38.3 µM]	19%
COc1ccc(N2CCN(C(=O)c3cc4c(=O)n(Cc5ccccc5)ccc4nc3C)CC2)cc1	-9	-3.3	14	-8	-4	1.3%&2.2%	-2%
O=C1c2ccccc2S(=O)(=O)N1Cc1nnc(-c2ccccc2Br)o1	-21	-4.5	-12	5	11	0.5%	16%
N#Cc1ccc(C(=O)N2CCCCC2c2cc(C(=O)Nc3ccc4c(c3)OCO4)no2)cc1 (stereo not given)	-6	-3.3	·	-18	2	2.1%	·
COC(=O)C1=C(O)C2(C(=O)O)CC(C(=O)OC)=C(O)C(C(=O)O)(C1)C2	3	-1.4	1	9	1	-1.5%	-2%
O=C(OCC(=O)N1CCOCC1)c1cc(=O)[nH]c2ccccc12	9	-0.7	·	8	-8	2.7%	·
CCCS(=O)(=O)NC(=O)C1(C)CCN(C(=O)CSc2ccccc2)C1 (stereo not given)	4	-2.1	·	4	-12	0.0%	·
CCOC(=O)c1csc(NC(=O)c2ccc(S(=O)(=O)N(C)C)cc2)n1	4	2.6	20	3	-1	4.1%[38.3 µM]	18%
CCOc1cccc(-c2nn3c(-c4ccco4)nnc3s2)c1	-16	0.9	-2	-13	-4	14%	-27%
O=c1cc(N2CCCCC2)c(-c2ccccc2)nn1Cc1ccccc1	2	-1.3	2	-5	-9	2.1%	?
OCC1OC(c2ccc(OCc3ccccc3)cc2OCc2ccccc2)C(O)C1O (stereo not given)	4	-4.4	·	-18	-9	1.3%	·
CCCSc1nc2c(c(=O)[nH]c(=O)n2C)n1Cc1ccc(C)cc1	8	-0.4	6	4	-15	2.3%	-4%
NC(=O)c1ccc(C23CC4CC(CC(C4)C2)C3)o1	-3	-1.8	4	2	-14	-0.1%	-5%
COc1ccc(/C=C/C(=O)NC(=S)Nc2ccc(S(=O)(=O)Nc3cc(OC)ncn3)cc2)cc1	?	1.7	12	-25	4	-2.2%	-9%
Cn1c(=O)c2cc(NC(=O)NCCc3cccs3)ccc2n1Cc1ccccc1	4	8.0	·	0	13	0.1%	·
Cc1nc(SCCc2ccccc2)[nH]c(=O)c1C	·	-3.9	29	2	-8	0.0%	23%
Cc1cccc(NC(c2ccc(O)cc2)c2ccc3ccc(C)nc3c2O)n1 (stereo not given)	?	-0.1	28	-23	18	-4.1%	?
O=C(COc1cc(Cl)c(Cl)cc1Cl)N1CCN(c2ccccn2)CC1	5	11	-3	-6	10	3.2%	-4%
O=C1CC(N2CCN(Cc3ccc4c(c3)OCO4)CC2)C(=O)N1c1ccccc1 (stereo not given)	3	-0.3	-7	1	-15	-3.0%[38.3 µM]	13%
COC(=O)c1ccc(C(=O)OCCCc2nc3ccc(N)cc3[nH]2)cc1	-6	1.5	2	2	-2	-0.4%	16%
Continuation:
SMILES	CtBP-E1A inh	D2 ag	TRPV1 PAM	Six1-Eya2 inh	D2 PAM	PINK1 modulator	Sfp PPTase inh
CC(=O)Nc1cncc(-c2cccc(S(C)(=O)=O)c2)n1	7	-4.7	·	4	-4	-0.4%	·
COc1ccc(C(=O)Nc2ccccc2C(=O)Nc2ccncc2)cc1	6	-3.9	1	1	-16	0.7%	6%
O=C1C(=O)c2ccccc2C(O)=C1c1ccccc1F	5	-10	?	7	-25	-2.6%	17%
C[C@]12CC[C@@H]3c4ccc(O)cc4CC[C@H]3[C@@H]1CC[C@@H]2OC(=O)CCC1CCCC1	0	-6.1	·	-4	-15	3.4%	·
CC(=O)Nc1ccc(Nc2nc(C)nc3c2oc2ccccc23)cc1	-12	0.9	?	-4	2	7.5%	9%
COc1ccc2c(c1)[C@H]1[C@H](CO2)[C@H](c2ccccc2)[C@]2(C)C(=O)Nc3cc(C)ccc3C(=O)N12	-2	-2.0	·	-1	-47	1.4%	·
O=C(O)CCC(=O)NNc1ccccc1[N+](=O)[O-]	-3	-0.5	9	13	-27	-2.4%	-6%
COC(=O)c1cc(-c2c(C)nn(-c3ccccc3)c2C)n[nH]1	3	0.9	4	-2	1	6.5%	5%
O=C(NCCCN1CCOCC1)c1ccc2c(c1)N(Cc1ccc(Cl)cc1)C(=O)c1ccccc1S2=O (stereo not given)	·	-3.9	-9	17	-1	-0.1%	-10%
CN(Cc1nnc(-c2ccc(F)cc2)o1)c1ccccc1	6	-2.1	-12	-7	-5	-1.2%	1%

Reprinted from the part before: 2 compounds, then new ones.
SMILES	CtBP-E1A inh	D2 ag	TRPV1 PAM	Six1-Eya2 inh	D2 PAM	PINK1 modulator	Sfp PPTase inh
O=C(NCCCN1CCOCC1)c1ccc2c(c1)N(Cc1ccc(Cl)cc1)C(=O)c1ccccc1S2=O (stereo not given)	·	-3.9	-9	17	-1	-0.1%	-10%
CN(Cc1nnc(-c2ccc(F)cc2)o1)c1ccccc1	6	-2.1	-12	-7	-5	-1.2%	1%
COc1ccc(CN2CC(C(=O)NCCC3=CCCCC3)CC2=O)cc1 (stereo not given)	9	-0.2	-9	0	-14	·	15%
Cc1ccc(NC(=O)c2ccco2)c(NC(=O)c2cccs2)c1	5	-0.7	22	0	4	·	16%
COC12NC(=O)N(C)C1(OC)C(=O)N(C)C(=O)N2C (stereo not given)	-12	-2.4	-9	2	-7	4.9%	-9%
Cc1c(-c2ccc(F)cc2)nc(N)c(C#N)c1-c1cccs1	9	-2.5	21	6	-14	12%	20%
CCCCOC(=O)c1cc(=O)[nH]c(=O)[nH]1	-2	-0.8	14	-4	-2	1.4%	-14%
Cc1ccccc1Nc1nc(N)nc(COC(=O)[C@@H](NC(=O)c2c(F)cccc2F)C(C)C)n1	-26	9.6	3	12	-2	2.0%	·
CCN(CC)C(=O)N1c2ccccc2C=Cc2ccccc21	3	-2.6	-11	-1	0	-0.5%	0%
O=C(Nc1cccc(S(=O)(=O)N2CCCCCC2)c1)c1cc(=O)c2ccccc2o1	-6	5.7	1	-10	17	1.4%	13%

A few values from the entries so far:
NC(=O)c1ccc(C23CC4CC(CC(C4)C2)C3)o1 – CtBP-E1A inh = -3
Cc1nc(SCCc2ccccc2)[nH]c(=O)c1C – TRPV1 PAM = 29
OCC1OC(c2ccc(OCc3ccccc3)cc2OCc2ccccc2)C(O)C1O (stereo not given) – D2 PAM = -9
CCOc1cccc(-c2nn3c(-c4ccco4)nnc3s2)c1 – D2 ag = 0.9
Cc1c(CC(=O)O)c(=O)oc2cc3occ(-c4ccc(F)cc4)c3cc12 – CtBP-E1A inh = -8
